From PubChem BioAssay
Cruzain noTriton: inhibitors of Trypanosoma cruzi cruzain without detergent; P25779; purified cruzain, Z-FR-AMC fluorescence, no detergent; Potency, µM, for the others: max response, negative = inhibition, actives largely listed as inhibitors; 2.3% of 200,000 active; AID 1476;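 note: plate controls were enzyme without inhibitor for no effect and buffer without enzyme for full effect; nearly all actives have a fitted effect of over 40% in size; top concentration of the series not given in the record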
Target sequence (P25779 123-467 limits assumed): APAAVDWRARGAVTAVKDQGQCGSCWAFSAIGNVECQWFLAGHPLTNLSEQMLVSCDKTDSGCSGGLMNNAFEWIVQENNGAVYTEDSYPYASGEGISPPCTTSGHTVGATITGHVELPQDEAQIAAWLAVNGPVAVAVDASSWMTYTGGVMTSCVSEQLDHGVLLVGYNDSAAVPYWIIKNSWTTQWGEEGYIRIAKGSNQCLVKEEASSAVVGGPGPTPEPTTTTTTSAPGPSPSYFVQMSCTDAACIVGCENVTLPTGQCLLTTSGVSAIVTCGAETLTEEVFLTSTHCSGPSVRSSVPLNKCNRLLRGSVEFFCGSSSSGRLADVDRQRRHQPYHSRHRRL
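Purified cruzain at 1.5 nM, pre-incubated 15 min with compound at room temperature in 100 mM sodium acetate pH 5.5, 5 mM DTT, 0.00005% Triton X-100. Reaction started with 2 uM Z-FR-AMC; AMC fluorescence increase over 60 s gives rate.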
LASV entry inh: inhibitors of Lassa virus binding or cell entry; Potency, µM (top dose mostly 37.9 µM), inactives show at the top dose activity change, negative = inhibition, actives largely listed as inhibitors; Lassa virus pseudotype entry inhibition, cell reporter; control for the full effect not named in the record; 1.2% of 300,000 active; active means well fitted inhibition curve with a large enough effect; inconclusive means small, poorly fitted or top-dose-only effect, or effect the other way; inactive means flat fitted curve, though single readings scatter; tested in HEK293 cells; note: % is set by controls: 0 for no effect and ±100 for the full control effect; nearly all actives have a fitted effect of over 50% in size; luciferase read-out
RE007 growth inh: less growth of the S. pombe RE007 Vpr strain. S. pombe RE007 Vpr strain, BacTiter-Glo ATP luminescence, 24 h; control for the full effect not named in the record. Potency, µM (highest dose often 92.2 µM), for inactives: top-dose activity change, negative = less growth. 0.21% of 360,000 active. AID 651644; active = well fitted falling curve with a large enough effect; inconclusive = small, poorly fitted or top-dose-only effect; inactive = no such curve, though single readings can be large or run the other way;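 note: % is set by controls: 0 for no effect and ±100 for the full control effect; nearly all actives have a fitted effect of over 50% in size; the assay follows cell death caused by Vpr and the record does not say whether a fall means rescue or toxicity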
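Fission yeast strain RE007, carrying one chromosomally integrated HIV-1 vpr copy, was seeded at OD 0.01 in PMG+AL medium with 23 nL pinned compound. After 24 h at 30 °C and 99% humidity, viability was read by BacTiter-Glo luminescence.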
MARV entry inh: Marburg virus entry inhibition | Marburg virus pseudotyped entry inhibition, cell reporter; control for the full effect not named in the record; about a third of the inactives were read at about 46 µM | Potency, µM (top dose mostly 37.8 µM), for inactives: top-dose activity change, negative = inhibition, hits mostly inhibitors | 1.8% of 300,000 active; active = well fitted inhibition curve with a large enough effect; inconclusive = small, poorly fitted or top-dose-only effect, or effect the other way; inactive = flat fitted curve, though single readings scatter; tested in HEK293 cells; about a fifth of its hits are not listed in these tables; note: % is set by controls: 0 for no effect and ±100 for the full control effect; luciferase read-out
Cruzain inh Det: inhibitors of Trypanosoma cruzi cruzain with detergent; P25779; purified cruzain, Z-FR-AMC fluorescence, 0.01% Triton; Potency, µM, without a hit: max response, negative = inhibition, usual class: inhibitors; 0.43% of 200,000 active; AID 1478;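 note: plate controls were neutral wells for no effect and buffer without enzyme for full effect; nearly all actives have a fitted effect of over 40% in size; top concentration of the series not given in the record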
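Cruzain (1.5 nM) preincubated 15 min at RT with compound in 100 mM sodium acetate pH 5.5, 5 mM DTT, 0.01% Triton X-100. Reaction started with 2 uM Z-FR-AMC; AMC fluorescence (ex 360/em 450 nm) change over 60 s gave rate.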
NS1 function inh: blocks influenza NS1 protein function; AID 2326; S. cerevisiae slowed by influenza A NS1, growth recovery by OD600; Potency, µM (highest dose often 46.1 µM), inactives show at the top dose activity, positive = more growth; 0.4% of 270,000 active; active means well fitted rising curve with a large enough effect; inconclusive means small, poorly fitted or top-dose-only effect; inactive means no such curve, though single readings can be large or run the other way; note: nearly all actives have a fitted effect of over 50% in size
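Recovery from NS1-induced slow growth read by OD600 in budding yeast switched to galactose assay medium (pH 6.0, -URA) at 1:100 dilution. Compound 23 nl per well; the matching strain lacking NS1 serves as control.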
SARS PLpro yeast: SARS-CoV PLP inhibition in yeast; S. cerevisiae expressing SARS-CoV PLpro, growth rescue; control for the full effect not named in the record; Potency, µM (series often up to 32.9 µM), for the others: top-dose activity, positive = growth rescue; 0.19% of 330,000 active; active means well fitted rising curve with a large enough effect; inconclusive means small, poorly fitted or top-dose-only effect; inactive means no such curve, though single readings can be large or run the other way; note: 0% is about no effect; nearly all actives have a fitted effect of over 55% in size; growth read by luminescence after 48 h
StopGo reporter: FMDV 2A StopGo reporter, luciferase signal | human cells with a luciferase reporter of 2A StopGo recoding; control for the full effect not named in the record | Potency, µM (titrated, usually from 57.9 µM), for inactives: at the highest dose signal change, negative = less light | 1.2% of 410,000 active | AID 1159524; active = well fitted falling curve with a large enough effect; inconclusive = small, poorly fitted or top-dose-only effect; inactive = no such curve, though single readings can be large or run the other way; tested in HEK293T cells; note: % is set by controls: 0 for no effect and ±100 for the full control effect; nearly all actives have a fitted effect of over 45% in size; luciferase light after 4 h
An asterisk follows results filed as active; ? = inconclusive; / = not tested or not shown; & = joins results of further samples; [ ] = another dose, or the depositor's remark. Unless noted, calls come from the whole dose curve; as a rule, active = well fitted curve in the direction sought with a large enough effect; inconclusive = small, poorly fitted or top-dose-only effect, or another doubt; inactive = no such curve, though single readings can be large; an effect the other way counts as inactive or inconclusive. Potency is the fitted concentration of half-maximal effect. Compounds were not picked by outcome; about 4.7% have a hit in one of these screens.

SMILES,RE007 growth inh,Cruzain noTriton,Cruzain inh Det,MARV entry inh,StopGo reporter,NS1 function inh,SARS PLpro yeast,LASV entry inh
N/C(=N\OS(=O)(=O)c1cc(Cl)ccc1Cl)c1ccncc1,4.0%[3.69 µM],18.3%,2.1%,19.5%,5.4%,1.9%,8.1%,4.4%
O=C1CC(NCc2cccs2)C(=O)N1c1ccc(Cl)cc1 (stereo not drawn),-16.2%,-22.8%,5.2%,-17.6%[46.1 µM],-7.2%,-12.8%,-11.8%,3.1%
CCOC(=O)c1cnc2ccc(C)cc2c1Sc1ccccc1C(=O)OC,-10.5%,3.4%,-6.2%,?,-17.6%,10.7%,-13.2%,-16.0%
Cc1nnc(NC(=O)c2nc(SC(C)C)ncc2Cl)s1,/,-2.3%,-4.1%,-17.7%[46.1 µM],2.1%,/,/,27.5%[46.1 µM]
CC(=O)Nc1ccc(S(=O)(=O)NCCSCc2ccco2)cc1,-1.3%,-4.2%,-2.4%,0.6%,11.6%,24.1%,9.9%,?
COc1ccc(CC(=O)NNC(=O)CCc2ccccc2)cc1OC,4.3%,/,/,6.3%[46.1 µM],4.7%,/,-4.6%,/
CCOC(=O)N1CCN(S(=O)(=O)c2c(C(=O)N3CCCCC3)c(C)n(C)c2C)CC1,11.4%,/,/,/,-0.7%,0.2%,0.2%,/
C=CCSc1n[nH]c2nc3c(c(=O)n12)C1(CCCC1)Cc1ccccc1-3,-16.6%,10µM*,1.9%,?,-13.1%,-0.1%,-6.8%,0.8%
CCOC(=O)C1=C(CN2CCN(c3ccccc3F)CC2)NC(=O)NC1c1ccc(Cl)cc1 (stereo not drawn),/,3.8%,-2.9%,18.1%[46.1 µM],?,/,/,13.3%[46.1 µM]
CCOc1ccc(N(CC(=O)Nc2ccccc2C)S(=O)(=O)c2c(C)noc2C)cc1,9.1%,-7.6%,-4.6%,2.9%,-21.4%,-77.8%,1.0%,/
O=C(COC(=O)c1ccc(S(=O)(=O)N2CCOCC2)cc1)Nc1nc(-c2ccccc2)cs1,23.0%,?,3.5%,-1.1%&-1.1%,10.6%,4.3%,9.4%,9.7%
S=C(Nc1ccc(Cl)cc1Cl)N1CCN(c2ccccn2)CC1,-6.8%,/,/,/,-2.5%,-10.0%,0.5%,/
Cn1nnnc1NCc1ccc(Cl)cc1,0.0%,/,/,?,-9.4%,/,2.7%,6.5%
Cc1nonc1NC(=O)CSc1nnc(-c2ccoc2C)n1C,-16.3%,-5.7%,1.0%,17.0%,-13.1%,2.9%,3.0%,4.1%
O=C(NCc1ccncc1)C(=O)NCC1OCCCN1S(=O)(=O)c1ccccc1 (stereo not drawn),1.9%,12.9%,-3.7%,8.3%,-13.8%,12.3%,-4.7%,3.4%
O=C(Nc1ccc2c(c1)OCO2)c1ccc(N2C(=O)c3ccccc3C2=O)cc1,-10.4%,6.31µM*,2.8%,18.2%[46.1 µM],4.1%,22.8%,-9.2%,1.6%
O=C(CN(Cc1ccc(F)cc1)C(=O)CNS(=O)(=O)c1ccc(Cl)cc1)NCC1CCCO1 (stereo not drawn),21.2%,/,/,1.1%[46.1 µM],4.6%,?,1.1%,3.0%
Cc1ccn2c(Nc3ccccc3C)c(-c3cccnc3)nc2c1,4.9%,-9.3%,-3.3%,?,-7.0%&-13.3%,-7.4%,-1.2%,-3.1%&8.6%[46.1 µM]
CCCc1nn2c(=O)cc(O)nc2s1,22.5%,6.8%,1.1%,20.0%,-12.1%,-3.7%,12.4%,0.8%
O=C1C2C3C=CC(CC3)C2C(=O)N1c1ccc(F)cc1 (stereo not drawn),0.3%,/,/,?,8.2%,-0.9%,10.4%,8.3%
Cc1ccc(C(C)C)c(OCCN2CCc3ccccc3C2)c1,-25.2%,/,/,?,?,-12.0%,/,-27.4%
O=C(CCc1nc2ccccc2c(=O)[nH]1)NNC(=O)COc1ccccc1Cl,-2.1%,/,/,-4.1%[46.1 µM],5.9%,/,1.0%,11.7%
CCn1nnc2cc(C(=O)Nc3cc(S(C)(=O)=O)ccc3Cl)ccc21,-15.9%,/,/,-2.7%,-16.8%,3.8%,-4.0%,1.2%
COc1cc(CNc2ncc(-c3ccc(Br)cc3)n2C)cc(OC)c1OC,-14.4%,/,/,/,?,-8.2%,-5.6%,/
CC1(C)CC(=O)C2=C(C1)N(CCN1CCOCC1)C1=C(C(=O)CC(C)(C)C1)C2c1ccc(Cl)c([N+](=O)[O-])c1,-15.2%,/,/,?,-7.4%,4.4%,2.0%,-4.4%[46.1 µM]
COc1ccc(NC2=C(C)C(=O)CC2)cc1,1.5%,-4.2%,0.6%,-13.8%[46.1 µM],44.0%[activator],-8.7%,5.9%,5.2%
Cc1nc(NC(=O)C2CC3CCCC(C2)C3=O)sc1C (stereo not drawn),1.5%,11.5%,3.0%,?,16.2%,5.1%,4.5%,-0.9%
S=C(Nc1ccc(CN2CCCCC2)cc1)Nc1cccc(Cl)c1Cl,-17.0%,/,/,11.2µM*,-3.2%,-5.4%,5.3%,?
Oc1ccccc1/C=N/n1c(COc2ccccc2)n[nH]c1=S,-1.3%,/,/,-22.4%,-5.9%,-0.5%,12.7%,?
CCN(CC)CCN1C(=O)c2oc3ccccc3c(=O)c2C1c1ccccc1 (stereo not drawn),-2.0%,-18.0%,-5.0%,6.9%,26.5%,5.8%,3.1%,5.8%
Nn1c(SCc2ccc(F)cc2)nnc1-c1cccnc1,22.5%,/,/,2.3%,29.7%,0.5%,-1.7%,13.4%
Cc1cc(O)c(C(=O)Nc2cccc(Cl)c2)c(=O)n1C,5.8%,/,/,/,22.2%,-2.1%,1.1%,/
CC(=O)Nc1cccc(NC(=O)C2CC3CCC2C3)c1 (stereo not drawn),4.7%,2.9%,2.4%,0.5%,14.3%,-2.9%,-3.8%,-10.1%
O=C(NCCc1csc(-c2cccnc2)n1)c1ccc(F)c(F)c1,/,-4.1%,0.4%,/,-27.0%,/,/,-3.5%[46.1 µM]
Cc1ccc(OC(=O)CSc2nnc(-c3cccs3)o2)cc1,/,4.5%,-2.9%,-9.9%[46.1 µM],-18.8%,/,/,-3.3%[46.1 µM]
Cc1ccc(NC(=O)c2ccc(Cn3cc(Br)cn3)o2)cc1,6.1%,-1.8%,-10.1%,1.6%,-14.5%,-1.0%,-24.4%,7.0%
COCCN(C(=O)CSc1nnc(C)n1-c1ccccc1)c1c(N)n(Cc2ccccc2)c(=O)[nH]c1=O,9.2%,22.3%,1.1%,19.9%,-3.5%,0.1%,14.6%,-2.1%
O=C(NCCN1CCOCC1)c1c(F)c(F)c(F)c(F)c1F,6.8%,?,?,0.5%,-25.1%,?,0.4%,3.8%
COc1ccc(OCCC(=O)OCC(=O)NCc2ccc(F)cc2)cc1,-21.2%,/,/,5.2%[46.1 µM],-1.8%,/,-4.6%,4.7%
CCOCC(O)CNC(=O)c1ccc(OC2CCN(C(=O)c3cccnc3)CC2)cc1 (stereo not drawn),7.1%,/,/,0.7%[46.1 µM],39.9%[activator],0.1%,1.8%,3.2%
CC(=O)Nc1nc(C)c(-c2csc(Nc3ccc(S(N)(=O)=O)cc3)n2)s1,11.5%,/,/,1.8%[46.1 µM],-8.8%,-3.1%,-0.6%,19.2%
CCOc1ccc(-n2c(C)c(C(C)=O)c(C(C)=O)c2C)cc1,35.9%,6.5%,-1.1%,-0.5%,-23.3%,-18.7%,-11.0%,1.3%
O=C(COc1ccccc1[N+](=O)[O-])N/N=C/c1cccc(OC(=O)c2ccc3c(c2)OCO3)c1,-1.8%,?,-0.2%,?,22.1%,5.9%,3.7%,27.6%
COC(=O)c1ccc(OC)c(CN2CCCN(Cc3cc(C)ccc3C)S2(=O)=O)c1,-0.3%,/,/,-8.9%[46.1 µM],11.6%,-3.0%,-1.2%,?
CCN(CC(=O)Nc1cc(S(=O)(=O)N2CCOCC2)ccc1C)Cc1ccccc1,37.2%,/,/,?,-22.9%,/,0.6%,-13.4%
O=C(Nc1sc2c(c1C(=O)NCCO)CCCC2)c1ccco1,-11.5%,/,/,-1.0%,-8.7%,-4.7%,-12.6%,8.4%
O=C(CC1C(=O)NCCN1Cc1ccccc1)NCCC1=CCCCC1 (stereo not drawn),0.9%,/,/,/,2.1%,7.5%,0.0%,/
Cc1cc(NC(=O)c2ccc(NC(=O)C3CC3)cc2)no1,0.1%,/,/,?,50.2%[activator],-0.6%,-0.6%,16.5%
CCOc1ccc(S(=O)(=O)N2CCCC(C(=O)N3CCN(CC)CC3)C2)cc1Cl (stereo not drawn),-23.2%,/,/,?,-25.4%,-4.0%,0.4%,-10.4%[46.1 µM]
C=C(C)CCOC(=O)C(CC(=O)O)NCc1ccco1 (stereo not drawn),11.2%,/,/,/,-18.2%,2.4%,-1.4%,/

(list continues)
SMILES,RE007 growth inh,Cruzain noTriton,Cruzain inh Det,MARV entry inh,StopGo reporter,NS1 function inh,SARS PLpro yeast,LASV entry inh
COc1ccc(CNC(=O)C2CCN(c3nnc(-n4cccc4CNc4ccc(C)cc4)s3)CC2)c(OC)c1,/,5.6%,-5.4%,-7.9%[46.1 µM],?,/,/,/
CCN(CC)S(=O)(=O)c1ccc(O)c(C(=O)OCC(=O)NC23CC4CC(CC(C4)C2)C3)c1,-19.6%,/,/,-0.9%,?,/,-15.8%,?
CCCCn1c(N)c(N(CC(C)C)C(=O)C2CCCO2)c(=O)[nH]c1=O (stereo not drawn),-2.9%,/,/,12.9%,-16.8%,/,0.3%,10.1%
O=C(NC1=NCCS1)c1cc2ccccc2o1,-23.5%,-24.5%,-0.3%,?,-61.0%,-48.0%,-5.1%,?
